Assay outcomes deposited in PubChem by several laboratories.
HSV replic up = HSV replication enhancement | AID 1956 | maximum fold increase | HSV replication augmentation in cells, fold increase | 220,000 compounds, 0.005% hits;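 active = peak rise of 1.5-fold or more in the series; inconclusive = self-fluorescent or not available for retest; tested in PC3 cells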;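 note: first round at 10 µM; read as green reporter fluorescence; hits show the peak of a series up to 25 µM; 1 = signal of infected wells without compound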
RGS16-Gao = RGS16-Galphao interaction regulator (human) | O15492+P09471 | bead-based flow cytometry RGS16-Galphao binding, fluorescence; actives lie on both sides | binding response (% of control), % at 10 µM | 220,000 compounds, 0.38% hits | AID 1441;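 active = below 25% or above 175%, edge rows of some plates excepted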;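 note: Galphao activated by GDP with aluminum fluoride before binding; 100% = wells without compound and 0% = beads without RGS; some results beyond the cut were filed as inactive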
GALR2 agonist = GALR2 (human) receptor agonism | GALR2-expressing cells, agonist activation read-out | activation, %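 (tested at 5 µM)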 | 140,000 compounds, 0.48% hits | AID 803;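 active = above mean plus 3 SD of all compounds, about 5% in these data, not always enough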;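 note: 0% = vehicle buffer wells and 100% = reference agonist at full effect; tested in CHO reporter cells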
PKD1 kinase inh = inhibitors of human PKD1 kinase; 200,000 compounds, 0.056% hits; PKD1 kinase fluorescence polarization assay; Q15139; inhibition, %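 (about 10 µM by stock and volumes)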; AID 797;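 active = inhibition of 50% or more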;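 note: controls were vehicle for no effect and a reference inhibitor for full effect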
Target sequence (Q15139 whole entry, looked up): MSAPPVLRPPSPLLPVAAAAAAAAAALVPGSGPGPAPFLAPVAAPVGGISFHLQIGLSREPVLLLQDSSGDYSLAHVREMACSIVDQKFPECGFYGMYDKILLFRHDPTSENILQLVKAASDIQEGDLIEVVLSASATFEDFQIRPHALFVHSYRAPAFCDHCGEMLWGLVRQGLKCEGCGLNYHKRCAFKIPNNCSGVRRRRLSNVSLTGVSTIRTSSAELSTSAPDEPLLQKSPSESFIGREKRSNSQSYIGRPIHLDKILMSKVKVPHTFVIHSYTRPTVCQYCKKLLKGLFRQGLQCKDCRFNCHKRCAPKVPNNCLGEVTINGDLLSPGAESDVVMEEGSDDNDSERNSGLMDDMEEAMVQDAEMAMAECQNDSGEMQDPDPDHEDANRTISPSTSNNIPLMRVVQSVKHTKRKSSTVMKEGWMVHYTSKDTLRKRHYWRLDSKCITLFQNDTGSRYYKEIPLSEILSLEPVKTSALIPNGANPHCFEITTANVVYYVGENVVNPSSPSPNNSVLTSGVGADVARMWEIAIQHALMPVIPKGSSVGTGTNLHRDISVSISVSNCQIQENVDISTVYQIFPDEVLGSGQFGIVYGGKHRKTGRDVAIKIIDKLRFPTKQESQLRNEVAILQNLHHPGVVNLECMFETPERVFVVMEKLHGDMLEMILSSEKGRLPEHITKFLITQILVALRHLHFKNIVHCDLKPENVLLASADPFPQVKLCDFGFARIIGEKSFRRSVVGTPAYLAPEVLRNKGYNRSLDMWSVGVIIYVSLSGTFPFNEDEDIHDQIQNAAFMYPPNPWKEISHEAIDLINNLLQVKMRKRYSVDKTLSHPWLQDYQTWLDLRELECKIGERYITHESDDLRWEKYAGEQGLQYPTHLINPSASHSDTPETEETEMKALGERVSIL
Insulin prom inh = TRM-6 insulin promoter activity inhibition | 130,000 compounds, 0.9% hits | TRM-6 cells (human fetal islet line), insulin promoter-eGFP reporter, imaging; reporter expression induced with tamoxifen | inhibition, % at 2 µM | AID 1273;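 active = inhibition above the mean plus 3 SD, with well images judged a real hit on visual review, cut at about 60% in these data, passing the limit was not always enough; inconclusive = inhibition over the cutoff but images rejected on review; inactive = inhibition not above the cutoff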
Insulin prom inh cell count = also measured in Insulin prom inh; calls as there; normalized cell count, %; measured here: cell count, toxicity; reference of the scale not given here;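 cells exposed to compound for 48 h; stained nuclei by imaging scaled within each plate; lower means fewer cells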
HSV replic up primary fold = also measured in HSV replic up; calls as there; fold increase; compound at 10 µM; measured here: primary screen fold increase 10 uM; tested in PC3 cells;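 GFP signal in the first replicate; 1 = infected wells without compound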
Starred values were filed as active, the others as inactive; i = inactive; ? = inconclusive; / = not tested or not shown.

SMILES | HSV replic up | HSV replic up primary fold | RGS16-Gao | GALR2 agonist | PKD1 kinase inh | Insulin prom inh | Insulin prom inh cell count
CC(CN1CCOCC1)C(=O)c1ccccc1 (stereo unspecified) | i | 1 | 101 | -2.0 | -1 | -26 | 124
CC1CCN(c2c(NCc3ccc(C(=O)NCC4COc5ccccc5O4)cc3)c(=O)c2=O)CC1 (stereo unspecified) | i | 0.89 | / | -1.5 | -10 | / | /
O=C1c2ccccc2C(=O)N1CCn1nc(Cl)nc1Cl | i | 0.87 | 99 | -2.0 | -6 | -18 | 57
CCCCn1c(N)c(N(CCC(C)C)C(=O)COC(=O)c2ccccc2)c(=O)[nH]c1=O | i | 0.87 | 95 | / | 0 | / | /
CC(C)Oc1ccc(N2CC(C(=O)NC3=NCCS3)CC2=O)cc1 (stereo unspecified) | i | 0.91 | 109 | / | -1 | / | /
CC(=O)Nc1ccc(NS(=O)(=O)c2cc(Cl)ccc2Cl)cc1 | i | 1.1 | 103 | / | / | / | /
Cc1ccc(C)c(N(CC(=O)N/N=C/c2ccc(-c3ccc([N+](=O)[O-])cc3)o2)S(=O)(=O)c2ccccc2)c1 | i | 1.1 | 101 | -3.9 | 2 | / | /
COc1ccc(Cc2nc(=S)[nH][nH]2)cc1Br | i | 1 | 77 | / | -2 | 0 | 112
CCC(=O)Nc1ccc(S(=O)(=O)Nc2ccccn2)cc1 | i | 0.93 | 100 | / | -6 | / | /
Cc1cc2ncn(C(=O)N3CCCCCC3)c2cc1C | i | 0.95 | 44 | -1.8 | -2 | 23 | 78
O=C(CC1(O)C(=O)Nc2ccccc21)c1cccc(-n2cccc2)c1 (stereo unspecified) | i | 0.95 | 101 | / | 2 | / | /
CCOc1ccc(NC(=O)CSc2ncc(-c3ccc(F)cc3)n2Cc2ccco2)cc1 | i | 0.67 | 101 | / | / | / | /
COC(=O)C(/C=N/O)NC(=O)c1ccccc1 (stereo unspecified) | i | 1 | 105 | / | -5 | 48 | 93
CN(C)S(=O)(=O)c1ccc(N2CCCC2)c(C(=O)NCc2ccccc2)c1 | i | 0.96 | 100 | -0.1 | -2 | 21 | 206
COc1ccc(S(=O)(=O)N2CCOC2CNC(=O)C(=O)NCCc2c[nH]c3ccccc23)cc1C (stereo unspecified) | i | 0.83 | 98 | -1.0 | -7 | -100 | 79
CC(=O)C1=C(O)C(=O)N(c2ccc(S(N)(=O)=O)cc2)C1c1ccc([N+](=O)[O-])cc1 (stereo unspecified) | i | 0.9 | 73 | -1.0 | -2 | 3 | 74
COCCCNC(=S)Nc1ccc2nc3n(c(=O)c2c1)CCCCC3 | i | 1 | 98 | / | -1 | / | /
COc1ccc(CNC(=O)CN(c2ccccc2)S(=O)(=O)c2ccccc2[N+](=O)[O-])cc1 | i | 0.98 | 107 | / | -3 | / | /
O=C(NC1CCCC1)c1ccccc1-c1ccccc1 | i | 1 | 197 | -2.2 | 7 | 11 | 118
CN(CC(=O)O)S(=O)(=O)c1ccc2c(c1)n(C)c(=O)c(=O)n2C | i | 0.93 | 101 | / | 4 | / | /
CCC(C)NCCC(=O)Nc1ccc(Cl)c(S(=O)(=O)Nc2ccc(Cl)cc2)c1 (stereo unspecified) | i | 0.79 | 98 | / | -2 | / | /
CC1(C)OC(=O)C(=CNc2ccccn2)C(=O)O1 | i | 1.2 | 101 | / | / | / | /
CC1(C)Cc2c(sc(NC(=O)COc3ccccc3)c2C#N)C(C)(C)N1 | i | 0.95 | 88 | / | -3 | / | /
CCOC(=O)C1=C(C)NC2=C(C(=O)c3ccccc32)C1c1ccc([N+](=O)[O-])o1 (stereo unspecified) | i | 0.99 | 104 | / | / | / | /
Cc1ccc(NC(=O)C2CCN(S(=O)(=O)c3cccs3)CC2)cc1 | i | 0.93 | 107 | / | 3 | -40 | 103

(list continues)
SMILES | HSV replic up | HSV replic up primary fold | RGS16-Gao | GALR2 agonist | PKD1 kinase inh | Insulin prom inh | Insulin prom inh cell count
CCn1c(SCC(=O)c2ccccc2)nnc1-c1cccnc1 | i | 0.93 | 102 | / | -1 | / | /
O=C(CCN1CCOCC1)c1ccc2c(c1)OCCO2 | i | 0.73 | 104 | -1.6 | -6 | 47 | 68
O=c1[nH]c2cc3c(cc2cc1CN(Cc1cccnc1)C(=S)NCc1ccco1)OCO3 | i | 0.95 | 96 | / | 0 | -93 | 119
COc1cc(/C=N/NC(=O)CCN2CCN(C(c3ccccc3)c3ccccc3)CC2)ccc1O | i | 0.98 | 101 | 1.7 | 7 | / | /
N#C/C(=C\N1CCN(Cc2ccc3c(c2)OCO3)CC1)c1nc2ccccc2s1 | i | 0.81 | 106 | -0.9 | -5 | 36 | 128
COc1cc(C(=O)Nc2ccncc2)c([N+](=O)[O-])cc1OC | i | 0.84 | 105 | / | / | / | /
CCOc1cc(Br)c(CC(=O)O)cc1OCC | i | 0.88 | 96 | / | / | / | /
COc1ccc(N2CCN(C(=O)c3cc(=O)[nH]c4ccccc34)CC2)cc1 | i | 1 | 97 | / | 12 | / | /
Cc1cc2cc(CNC(=O)Cc3cccs3)ccc2n1C | i | 1.1 | 97 | / | / | / | /
S=C(NCc1ccco1)Nc1cc(Cl)c(Cl)cc1Cl | i | 1.2 | 106 | -1.2 | 1 | / | /
O=C(NN1C(=O)C2C3CCC(O3)C2C1=O)c1ccc(Br)o1 (stereo unspecified) | i | 0.86 | 106 | -0.1 | -6 | -8 | 157
CCSc1nnc(-c2ccncc2)o1 | i | 0.9 | 96 | 0.2 | 0 | 28 | 66
CC1=NNC(=O)/C1=C\c1cn(-c2ccccc2)nc1-c1ccccc1 | i | 0.7 | 87 | / | -1 | / | /
COc1ccc(S(=O)(=O)CC2(O)CCN(C(=O)CC(C)C)CC2)cc1 | i | 0.9 | 105 | / | -3 | 26 | 144
CC(C)N(Cc1nc(-c2ccccc2)no1)C(=O)CN(C)S(=O)(=O)c1ccccc1 | i | 1 | 106 | -0.6 | -7 | -7 | 83
C/C(CC(C)(C)C1CCCCC1)=N\NC(N)=S | i | 0.87 | 97 | -1.3 | 3 | 32 | 104
Cn1c(O)c(C(C#N)=C2N=c3ccccc3=N2)c2ccccc21 | i | 1 | 102 | -1.5 | -7 | 0 | 57
O=C(CCn1nc(-c2ccccc2)ccc1=O)N1CCCC1 | / | / | 107 | -3.1 | -11 | 5 | 124
COC(=O)c1ccc(NC(=O)CNS(=O)(=O)c2cccs2)cc1 | i | 0.97 | 103 | -1.2 | -7 | 45 | 88
CCCN1C(=O)c2[nH]nc(-c3cc(Cl)c(C)cc3O)c2C1c1ccc(O)c(OC)c1 (stereo unspecified) | i | 0.87 | 99 | / | / | / | /
CC(C)(C)C(=O)CCN1C(=O)C2(OCCO2)c2ccccc21 | i | 0.89 | 96 | 0.1 | 2 | -8 | 72
O=C(N/N=C/c1cc([N+](=O)[O-])ccc1O)C1CCCCC1 | i | 0.99 | 89 | -1.6 | -3 | 16 | 140
OCCNC(=S)Nc1cc(Cl)cc(Cl)c1 | i | 0.89 | 100 | / | / | / | /
O=C(CN1C(=O)COc2ccccc21)NCc1ccc(C(=O)O)cc1 | i | 0.82 | 99 | -3.5 | -4 | 6 | 127
C=CCNc1ncnc2c1cnn2-c1ccc(OC)cc1 | i | 0.7 | 101 | 0.5 | 7 | / | /

Next results follow.
SMILES | HSV replic up | HSV replic up primary fold | RGS16-Gao | GALR2 agonist | PKD1 kinase inh | Insulin prom inh | Insulin prom inh cell count
COC(=O)[C@@]1(Cc2ccc(F)cc2)[C@H]2c3cc(C(=O)N(C)C)n(C[C@H](O)CO)c3C[C@H]2CN1C(=O)c1ccccc1 | i | 0.73 | 98 | -0.6 | -2 | -10 | 132
O=C(NCc1ccncc1)C(=O)N/N=C/c1ccc(OCc2ccccc2)cc1 | i | 0.98 | 102 | / | -4 | / | /
NC(=O)C1(N2CCCCC2)CCN(C2CC(=O)N(Cc3cccs3)C2=O)CC1 (stereo unspecified) | / | / | 108 | 0.0 | -4 | 17 | 121
CCc1ccc(C(N)=S)cc1 | i | 0.9 | 97 | / | -7 | / | /
CCN(CC)C(=O)C1CCN(Cc2cccc(OCc3ccccc3)c2)CC1 | i | 1 | 99 | -1.1 | 8 | / | /
COc1ccccc1C/C(N)=N/OC(=O)COc1cc(C)cc(C)c1C | i | 0.9 | 103 | / | -2 | / | /
O=C(CSc1nc2ccccc2[nH]1)c1c[nH]c2ccccc12 | i | 0.89 | 100 | / | -5 | -40 | 209
COC(=O)c1ccc(/C=C/c2ccc3cccc(OC)c3n2)cc1 | i | 0.87 | 103 | -0.9 | 0 | / | /
Cc1cc(N)n(-c2cc(C)c3ccccc3n2)n1 | i | 1 | 111 | / | 5 | 25 | 25
O=C1NC2=C(C(=O)c3ccccc32)C(c2ccccc2)N1 (stereo unspecified) | i | 0.93 | 108 | -1.9 | 29 | -36 | 53
O=C(CCCNS(=O)(=O)c1cccc2nsnc12)NCc1ccc(Cl)cc1 | i | 0.86 | 107 | -1.2 | 9 | / | /
Cc1ccc(NC(=O)c2cc3c(s2)CCCC3)cc1 | i | 0.87 | 101 | / | -6 | / | /
C/C(=N\Nc1nc(Cl)c(Cl)cc1Cl)c1ccc(S(=O)(=O)NCc2ccco2)cc1 | i | 0.8 | 104 | -0.7 | -2 | -6 | 97
O=C(Nc1ccc(Cl)cc1)Nc1cccnc1 | i | 0.81 | 103 | -0.9 | -8 | 67 | 215
CC(C)CCN1CCN(C2CSCCSC2)CC1CCO (stereo unspecified) | i | 1.1 | 103 | / | 5 | / | /
COc1ccccc1NC(=O)CNc1ccc(F)c(Cl)c1 | i | 0.99 | 97 | -0.1 | -1 | / | /
COCC1CCN(Cc2cn(-c3ccccc3F)nc2-c2cc(C)sc2C)CC1 | i | 0.88 | 106 | / | -3 | / | /
O=C(CNC(=O)c1ccc(S(=O)(=O)N2CCCC2)cc1)N/N=C/c1ccc(Cl)cc1 | i | 0.88 | 105 | 0.5 | -8 | 14 | 110
CCCCCc1ccc(OCCC[n+]2ccccc2)c(CCCCC)c1 | i | 0.67 | 106 | / | / | / | /
N#Cc1ccccc1NC(=O)CSc1nccn1CCc1ccccc1 | i | 0.86 | 102 | -1.9 | -2 | -10 | 137
CCOC(=O)C1=C(CC)OC(N)=C(C#N)C1c1ccc(F)cc1F (stereo unspecified) | i | 1 | 102 | / | 1 | / | /
O=c1[nH]cnc2scc(-c3ccc(F)cc3)c12 | i | 0.97 | 100 | -2.1 | 0 | 36 | 129
COc1ccccc1C(=O)Nc1ccc2c(c1)nc(CN1CCCCC1)n2C | i | 0.95 | 98 | / | 14 | / | /
O=C(NCCCNC(=O)C(F)(F)C(F)F)C(F)(F)C(F)F | i | 1 | 114 | -1.1 | -14 | -14 | 66
O=C1Nc2ccc([N+](=O)[O-])cc2C1=Nc1cccc(CO)c1 | i | 0.97 | 96 | / | -6 | / | /

Continuation.
SMILES | HSV replic up | HSV replic up primary fold | RGS16-Gao | GALR2 agonist | PKD1 kinase inh | Insulin prom inh | Insulin prom inh cell count
CC(=O)c1cc(OC(=O)c2ccncc2)ccc1OC(=O)c1ccncc1 | ? | / | 104 | -3.0 | 7 | -438 | 48
Cc1cccc(C(=O)N/N=C/C(C)Cc2ccc3c(c2)OCO3)c1 (stereo unspecified) | i | 1.1 | 100 | -0.7 | -6 | / | /
Cc1nc(CS(=O)(=O)c2ccccn2)sc1C(=O)NNC(=O)c1c(F)cccc1Cl | i | 0.79 | 100 | / | / | / | /
CCc1cc(C(=O)OC)c(NC(=O)CCC(=O)O)s1 | i | 0.8 | 99 | -1.1 | -3 | -32 | 62
O=C(Nc1nc2c(Br)cc(Br)cc2c(=O)s1)c1ccco1 | i | 0.92 | 103 | / | / | / | /
CC(C)(C)/C(O)=C/c1nc2cc(Cl)ccc2oc1=O | i | 0.79 | 102 | / | / | / | /

Fetched one by one from the entries so far:
SMILES | HSV replic up | HSV replic up primary fold | RGS16-Gao | GALR2 agonist | PKD1 kinase inh | Insulin prom inh | Insulin prom inh cell count
O=C(Nc1nc2c(Br)cc(Br)cc2c(=O)s1)c1ccco1 | i | 0.92 | 103 | / | / | / | /
Cc1cccc(C(=O)N/N=C/C(C)Cc2ccc3c(c2)OCO3)c1 (stereo unspecified) | i | 1.1 | 100 | -0.7 | -6 | / | /
CC(C)(C)/C(O)=C/c1nc2cc(Cl)ccc2oc1=O | i | 0.79 | 102 | / | / | / | /
Cc1nc(CS(=O)(=O)c2ccccn2)sc1C(=O)NNC(=O)c1c(F)cccc1Cl | i | 0.79 | 100 | / | / | / | /
CC(=O)c1cc(OC(=O)c2ccncc2)ccc1OC(=O)c1ccncc1 | ? | / | 104 | -3.0 | 7 | -438 | 48
CCc1cc(C(=O)OC)c(NC(=O)CCC(=O)O)s1 | i | 0.8 | 99 | -1.1 | -3 | -32 | 62
